High-throughput results as filed in PubChem BioAssay.
StopGo FLuc = FMDV 2A StopGo reporter, firefly signal. AID 1745856. 0.23% of 120,000 active. Potency, µM (series often up to 57.5 µM), inactives show at the top dose signal change, negative = less light. HEK cells with a luciferase reporter of 2A StopGo recoding; active = well fitted falling curve with a large enough effect; inconclusive = small, poorly fitted or top-dose-only effect; inactive = no such curve, though single readings can be large or run the other way; also: nearly all actives have a fitted effect of over 60% in size; overnight with compound
2A Renilla = lowers the Renilla signal of an FMDV 2A StopGo reporter; Potency, µM (doses to about 57.5 µM), without a hit: at the highest dose signal change, negative = less light; HEK cells with a luciferase reporter of 2A StopGo recoding; 0.32% of 120,000 active; active means well fitted falling curve with a large enough effect; inconclusive means small, poorly fitted or top-dose-only effect; inactive means no such curve, though single readings can be large or run the other way; also: nearly all actives have a fitted effect of over 55% in size; overnight with compound
* = called active by the depositor; ? = inconclusive; & = joins results of further samples; [ ] = dose if it differs, or a comment. % is scaled to controls: 0 for no effect and ±100 for the full control effect; potency is read from the fitted curve at half-maximal effect. Some of the compounds tested. The share of hits here may be higher or lower than overall.

SMILES	StopGo FLuc	2A Renilla
Cc1ccc2nc(/C(C#N)=C/c3ccc(OCc4ccc(Cl)cc4Cl)cc3)[nH]c2c1	0%	1%
CS(=O)(=O)N1CCC(C(=O)Nc2cccc(OCc3ccc(F)cc3)c2)CC1	14%	3%
CCc1ccc(NCc2cc3ccc(OC)cc3n(CC(=O)Nc3ccccc3OC)c2=O)cc1	-5%	3%
O=C(CSc1ccccc1)NCc1ccc2c(c1)CCN2C(=O)c1ccccc1	-16%	59%[activator]
CC(C)Cn1c(SC(C)C(=O)Nc2ccc3c(c2)OCO3)nc2cc(Cl)ccc2c1=O (centres undefined)	2%	-6%
CC(C)(C(=O)O)c1ccc(Cl)c(Cl)c1	21%	12%
Fc1ccc(N/N=C/c2ccccc2Cl)c(F)c1	17%	19%
CCN(CC)C(=S)SCc1c(C)c(C)c(Br)c(C)c1C	5%	2%
Cc1ccc2[nH]c3c(c2c1)CCCC3	70%[activator]	10%
O=S(=O)(c1ccccc1)c1nnn2c1nc(NCc1cccs1)c1sccc12	0%	3%
O=C(C(c1ccccc1)c1ccccc1)N1CCN(C/C=C/c2ccccc2)CC1	7%	-2%
COc1ccc(Nc2nn(-c3ccc(OC(F)(F)F)cc3)nc2C(C)=O)cc1	74%[activator]	-8%
CC(OC(=O)Cn1cnc2c1c(=O)n(C)c(=O)n2C)C(=O)Nc1ccc(F)c(F)c1F (centres undefined)	6%	-3%
CCOc1ccc(NC(=O)CC2C(=O)N(c3cccc(C)c3)C(=O)N2Cc2ccco2)cc1 (centres undefined)	-9%	44%[activator]
C=CCN1[C@H](CC(C)C)COc2cccc(N3CCCC3)c2S1(=O)=O	24%	24%
O=C(O)CCCC(=O)c1cccs1	-2%	8%
Cc1cccc(NC(=O)c2ccccc2NC(=O)CC23CC4CC(CC(C4)C2)C3)c1	11%	11%
Cc1ccc(NC(=O)CSc2nc(-c3ccc(C(C)(C)C)cc3)nc3cc(=O)[nH]n23)cc1C	2%	-9%
CC(C)c1ccc(C(=O)NCc2ccc(CN3CCCC3)cc2)cc1	0%	-15%
CCN(Cc1ccccc1)Cc1c(O)ccc2c(=O)c(-c3ccccc3)c(C(F)(F)F)oc12	-15%	-4%

Exported with each value named: 4 of the compounds above
CC(OC(=O)Cn1cnc2c1c(=O)n(C)c(=O)n2C)C(=O)Nc1ccc(F)c(F)c1F (centres undefined)
  StopGo FLuc = 6%
  2A Renilla = -3%
O=C(C(c1ccccc1)c1ccccc1)N1CCN(C/C=C/c2ccccc2)CC1
  StopGo FLuc = 7%
  2A Renilla = -2%
CC(C)c1ccc(C(=O)NCc2ccc(CN3CCCC3)cc2)cc1
  StopGo FLuc = 0%
  2A Renilla = -15%
O=C(CSc1ccccc1)NCc1ccc2c(c1)CCN2C(=O)c1ccccc1
  StopGo FLuc = -16%
  2A Renilla = 59%[activator]

More compounds:
SMILES	StopGo FLuc	2A Renilla
CCOc1ccc(/C(O)=C2\C(=O)C(=O)NC2c2ccc(Cl)cc2)cc1 (centres undefined)	25%	2%
CCCCNc1ccc(-c2nc(-c3ccccc3)no2)cc1[N+](=O)[O-]	14%	-7%
CCc1ccc(C(=O)C(C)Sc2nc(CN3CCOCC3)nc3ccccc23)cc1 (centres undefined)	-23%	-20%
CCC(=O)NNC(=S)NC1CCCCC1	3%	13%
CCOc1ccc(-c2noc(-c3nnn(-c4cccc(Cl)c4C)c3N)n2)cc1	-3%	-2%
O=C(/C=C/c1ccc(Cl)cc1Cl)OCc1c(F)cccc1Cl	20%	11%
Cc1cc(C)n(-c2nc3ccccc3nc2Nc2ccc(F)cc2C)n1	-8%	-2%
O=C(CSc1nc2c(oc3ccccc32)c(=O)n1-c1ccccc1)Nc1ccccc1F	?	-12%
O=C(NCCSc1ccc(Cl)cc1)NC1CC1	55%[activator]	16%
O=C(Nc1cccc(C(=O)N2CCN(c3ccccc3)CC2)c1)c1nsc2ccccc12	102%[activator]	-4%
CCC(CC)C(=O)Nc1c(C(=O)N2CCN(c3ccccc3F)CC2)oc2ccccc12	34%[activator]	268%[activator]
CCOc1ccc2oc(=O)cc(CN3CCN(C(=O)c4cccc(F)c4)CC3)c2c1	-23%	1%
Cc1cc(C(=O)Nc2c(C)cccc2C)n(-c2ccccc2)n1	0%	2%
Cc1cccc(-n2c(SCc3cccc(C#N)c3)nnc2N2CCOCC2)c1	1%	11%
CCOc1cccc2cc(C(=O)/C=C/c3ccc(C)cc3)c(=O)oc12	?	7%
CCN(CC)C(=O)Cn1cc(SCC(=O)Nc2ccccc2C)c2ccccc21	-14%	?
CCCN(CCC)S(=O)(=O)c1ccc(N2CCCCS2(=O)=O)cc1	3%	37%[activator]
CCc1ccc(-n2c(=O)c3c4c(sc3n(CC(=O)NC(C)CC)c2=O)CCCC4)cc1 (centres undefined)	-4%	-3%
COc1ccc(OC)c(Nc2ncnc3c2nc2n3CCCC2)c1	-8%	?
O=C(COC(=O)C12CC3CC(CC(Br)(C3)C1)C2)Nc1ccccc1[N+](=O)[O-]	7%	14%

Single values from the results shown:
CCc1ccc(C(=O)C(C)Sc2nc(CN3CCOCC3)nc3ccccc23)cc1 (centres undefined) – 2A Renilla: -20%
CCOc1ccc2oc(=O)cc(CN3CCN(C(=O)c4cccc(F)c4)CC3)c2c1 – 2A Renilla: 1%

(continued)
SMILES	StopGo FLuc	2A Renilla
O=C(CCCCCn1c(=O)c2sccc2n(CC(=O)Nc2ccccc2F)c1=O)NCc1ccc2c(c1)OCO2	0%	10%
O=C(COCc1cc(-c2ccc3c(c2)OCO3)on1)NC1CCCC1	63%[activator]	65%[activator]
NC(=O)C(=O)Nc1ccccc1C(=O)NCc1cccnc1	1%	2%
Nc1cc(N)nc(SCCC(=O)Nc2cc(Cl)ccc2Cl)n1	18%	6%
N#Cc1ccc(COC(=O)c2ccc3c(c2)NC(=O)CS3)cc1	-5%	-3%
COC(=O)c1cc2oc(C)cc2n1CC(=O)Nc1ccc(OC)c(OC)c1	-13%	-6%
Cn1c(=O)c2c(nc(SCc3ccccc3)n2Cc2ccccc2)n(C)c1=O	?	?
COc1cccc(C(=O)c2sc(Nc3ccc(F)cc3)nc2N)c1	129%[activator]	0%
COc1ccc(N(Cc2ccccc2)C(=O)c2nc(S(C)(=O)=O)ncc2Cl)cc1	?	-5%
CCOCCCNC(=O)C1CCCN(Cc2nc(-c3ccc(CC)cc3)oc2C)C1 (centres undefined)	?	?
N#Cc1ccc(N2CCC(C(=O)Nc3cn[nH]c3)CC2)nc1	-12%	-7%
CC(=O)NCc1ccc(-c2nc3ccccc3s2)cc1	112%[activator]	5%
Cc1ccc(S(=O)(=O)N(Cc2nc3nc(C)cc(C)n3n2)c2ccccc2)cc1	-9%	65%[activator]
COc1ccccc1OCCSc1nc(-c2ccc(C(C)(C)C)cc2)nc2cc(=O)[nH]n12	0%	-6%
CCCCCn1c(SCCCc2ccccc2)nc2c1c(=O)[nH]c(=O)n2C	-4%	-3%
Cc1ccc(C(=O)O)cc1S(N)(=O)=O	4%	2%
CSc1cccc(NC(=O)CCc2ncc(-c3c(F)cccc3F)o2)c1	12%	-6%
CC(C)C[C@H]1COc2cccc(F)c2S(=O)(=O)N1Cc1cn(CCC2OCCO2)nn1	5%	12%
CN(Cc1cccc(F)c1)C(=O)c1ccc(CS(C)(=O)=O)cc1	?	?
Cc1cc(C(=O)NCCC2=CCCCC2)cs1	103%[activator]	13%

Random excerpt: 4 entries already listed
SMILES	StopGo FLuc	2A Renilla
COc1cccc(C(=O)c2sc(Nc3ccc(F)cc3)nc2N)c1	129%[activator]	0%
Nc1cc(N)nc(SCCC(=O)Nc2cc(Cl)ccc2Cl)n1	18%	6%
Cc1cc(C(=O)NCCC2=CCCCC2)cs1	103%[activator]	13%
COc1ccc(N(Cc2ccccc2)C(=O)c2nc(S(C)(=O)=O)ncc2Cl)cc1	?	-5%

Continued.
SMILES	StopGo FLuc	2A Renilla
COc1cc(Cl)c(C)cc1NC(=O)c1cnc(N2CCCCC2)c2ccccc12	-27%	-19%
Cc1cccc2nc(-c3ccccn3)c(Nc3ccc(F)cc3)n12	?	?
O=C(Nc1ccccc1C(F)(F)F)N1CCOc2ccc(Cl)cc21	-19%	-8%
Cc1ccc(C2c3c(oc4ccccc4c3=O)C(=O)N2c2nnc(C)s2)cc1 (centres undefined)	-4%	-5%
CCN(CC(=O)NC1(C)CCS(=O)(=O)C1)Cc1cccc(F)c1 (centres undefined)	-5%	2%
CCc1cccc(CC)c1NC(=O)COc1ncnc2ccccc12	10%	-3%
CCOc1ccc(Oc2ccc(NC(=O)c3ccc[n+]([O-])c3)cc2)cc1	18%	-7%
CCN(C(=O)Cc1c(C(=O)O)c(C)cn1C)c1cccc(Cl)c1	-8%	3%
Cc1cccc(OCCSc2nc3ccccc3n2CC(=O)N2CCOCC2)c1	18%	-9%
Cc1ccc(-c2cc(NC(=O)c3ccccc3Cl)on2)cc1	103%[activator]	-2%
CCOc1ccc(-c2nc(N)ncc2Oc2ccccc2OCC)c(O)c1	14%	28%
COc1ccccc1NS(=O)(=O)c1cc(-c2n[nH]c(=O)c3ccccc23)ccc1C	-27%	106%[activator]
O=C(OC1CCOC1=O)c1ccccc1Nc1ccccc1 (centres undefined)	2%	3%
CCc1ccc(-c2nnn(CC(=O)N3CCCC3c3ccc4c(c3)OCCO4)n2)cc1 (centres undefined)	-12%	-16%
Cc1cccc(NC(=O)c2ccc(-n3cnc4cccnc43)cc2)c1C	126%[activator]	-7%
N#Cc1cccc(NC(=O)N2CCN(c3ncccc3Cl)CC2)c1	14%	-1%
O=C(OCc1cccc2ccccc12)c1cc(=O)c2ccccc2o1	36%[activator]	1%
COc1ccc(NC(=O)Cn2ccn(Cc3ccccc3)c(=O)c2=O)cc1Cl	4%	10%
CC(=O)Nc1ccc(/C(C)=N/OCc2cccc3cccnc23)cc1	59%[activator]	63%[activator]
CCN1CCCC1CNC(=O)c1cc2ccccc2oc1=O (centres undefined)	-3%	-14%
CC(=O)c1cccc(S(=O)(=O)NCCC(=O)NCC2CCCCC2)c1	1%	20%
COc1ccc(-c2nc3c(c(SCC(=O)Nc4ccc(OC)cc4OC)n2)COC(C)(C)C3)cc1	-5%	-13%
CC(OC(=O)c1nn(C)c(=O)c2ccccc12)C(=O)N1CCCc2ccccc21 (centres undefined)	0%	12%
CCCN(CCC)C(=O)Cn1c(=O)n(-c2ccc(CC)cc2)c(=O)c2c3c(sc21)CCC3	-2%	-7%
COc1ccc(-c2ccc(=O)n(CC(=O)Nc3cc(OC)ccc3OC)n2)cc1	-2%	9%
CC(=O)Nc1c(-c2ccc(Cl)cc2)c(C)nn1-c1ccc(C(=O)NCc2cccnc2)cc1	?	?
CCCc1cc(NCc2cccnc2)n2ncc(-c3ccccc3)c2n1	220%[activator]	-5%
COc1ccc(Cl)cc1S(=O)(=O)Nc1cccc(-c2ccc(N3CCOCC3)nn2)c1	0%	17%
COc1nc2ccccc2nc1N1CCC(C(=O)NCc2ccc(F)cc2)CC1	3%	-6%
O=c1c(S(=O)(=O)c2cccc(F)c2)c[nH]c2c(F)ccc(Cl)c12	56%[activator]	60%[activator]
CCc1ccc(C(=O)NC2=NC(c3ccccc3F)CC(=O)N2)cc1 (centres undefined)	4%	-5%
Cc1cn2c(=O)c(S(=O)(=O)N3CCN(c4cccc(C)c4C)CC3)c(C)nc2s1	1%	-6%
O=C(CSc1nncn1-c1ccccc1)Nc1cccc(S(=O)(=O)N2CCCC2)c1	-16%	7%
Cc1cc(C(=O)N2CCN(S(=O)(=O)c3ccccc3Cl)CC2)c(C)n1Cc1cccs1	-101%	?
CCCCCCCCCCC(=O)c1ccc(Cl)cc1	1%	6%
O=C(Cn1ncn2c(cc3cc(F)ccc32)c1=O)NC1CCCCC1	-8%	-1%
CN(C)C1(CNC(=O)c2ccccc2-c2ncc(-c3ccccc3)o2)CCCCC1	-15%	-14%
Cc1cc(C)c(NC(=O)c2nc3ccccc3nc2N2CCCCC2)c(C)c1	-1%&-12%	0%&6%
CCOc1ccc(NC(=O)C(NC(=O)C2CCC(C)CC2)C(C)C)cc1 (centres undefined)	1%	9%
COc1cc(/C=C2/NC(=O)NC2=O)ccc1OCC(=O)O	1%	2%
CCCCOc1ccc(CNC(=O)CN2C(=O)CCn3nc(-c4cn(C)c5ccccc45)cc32)cc1	-13%	-5%
COc1ccc(-c2noc(-c3ccc(NCCc4ccccc4)c([N+](=O)[O-])c3)n2)cc1	15%	-8%
CCCn1c2ccccc2c2cnn(CC(=O)NCC3CCN(Cc4ccccc4C)CC3)c(=O)c21	-19%	-15%
Cc1c(NC(=O)c2nc3ccccc3nc2N2CCCCC2)cccc1[N+](=O)[O-]	79%[activator]	-2%
O=C(CSc1nc2ccsc2c(=O)n1-c1cc(F)cc(F)c1)Nc1ccc2c(c1)OCCO2	-8%	19%
CCCCc1ccc(C(=O)Nc2ccc3nc(N4CCN(CC)CC4)cc(C)c3c2)cc1	-15%	-9%
Cc1cc2c(c(=O)n1Cc1ccccn1)C(c1cc3c(cc1Br)OCO3)C(C#N)=C(N)O2 (centres undefined)	-7%	0%
CC(Sc1ncc(C(F)(F)F)cc1Cl)C(=O)NC(C)c1ccc(F)cc1 (centres undefined)	1%	-2%
COc1cccc(NC(=O)CCS(=O)(=O)c2cc(-c3cc(C)no3)ccc2OC)c1	-4%	17%
O=C(NCc1ccccc1)c1cc(Sc2cccc(Cl)c2)nc2ccccc12	-6%	-7%
Cc1ccc2oc3c(c(=O)c2c1)C(c1ccccc1F)N(CCCN1CCOCC1)C3=O (centres undefined)	177%[activator]	8%
N#Cc1c(N)n[nH]c1CCCCCNC(=O)Cc1ccc(-c2ccccc2)cc1	19%	0%
Cc1c(C(=O)OCCOc2ccc(Cl)cc2Cl)sc(=S)n1C	24%	-8%
N#Cc1ccccc1NC(=O)C(=O)NCCc1csc2nc(-c3cccc(F)c3)nn12	189%[activator]	172%[activator]
